Screening results as filed in PubChem BioAssay.
CapD inh = Bacillus anthracis CapD inhibitors, primary screen, biochemical, fluorescence intensity | 0.23% of 140,000 active | z-score (no concentration beside the values) | CapD gamma-glutamyltranspeptidase (Bacillus anthracis Ames Ancestor) | purified CapD enzyme, fluorescence intensity read-out; stronger effect = lower value; some hits fall short of the stated cut;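 active = z-score under -4 in either of two replicates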;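 also: stock transfer was 100 nL into about 40 µL; score is relative to mean and spread of the plate; one replicate is shown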
AID504770 = growth inhibition of E. coli YBA685, primary screen, V. cholerae RctB inhibitors | z-score (concentration not given with the values) | E. coli YBA685 rctB-dependent plasmid, OD600 growth, 3 h; stronger effect = lower value | 0.27% of 130,000 active;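 active = z-score under -2 on both plates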;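 also: wells of about 30 µL received 100 nL stock; score is relative to mean and SD of the test wells; the first replicate is given; strong numbers were not always called active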
Numbers without * were called inactive; i = inactive; x = not tested or not shown; & = joins results of further samples.

Under each structure – CapD inh | AID504770
> Cc1nc(-c2ccc(-n3nncc3-c3ccc(Br)cc3)cc2)cs1
    x | 1.7
> O=C(O)c1ccccc1C(=O)c1ccc(Br)cc1
    0.4 | -0.1
> Nc1cc(C(F)(F)F)ccc1N1CCCCC1
    0.48 | x
> COc1ccc(CCN2CNC(=S)NC2)cc1OC
    -0.38 | -0.2
> CCOc1ccc(-c2cc(C(=O)NC(C)c3ccc4c(c3)OCCO4)[nH]n2)cc1 (centres undefined)
    0.46 | -0.2
> CN1CCN(C(=O)C23CC4CC(CC(C4)C2)C3)CC1
    x | 1.7
> O=C(NCCCn1ccnc1)OCc1ccc(/C=C/c2ccccc2)cc1
    16 | x
> COc1cc(NC(=O)NC2(c3ccccc3)CC2)c(OC)cc1Cl
    0.27 | -0.35
> CCCCC(=O)Nc1cccc(Oc2nc(C)c(Cl)c(C)c2C#N)c1
    0.48 | x
> Cc1ccsc1CNCC(O)c1ccccc1 (centres undefined)
    x | -0.2
> CC(=O)CCC1C2=NC(=C\C3=NC(=C(/C)C4=NC(C)(C5[N-]/C(=C\2C)C(C)(CCC(=O)NCC(C)OP(=O)(O)O[C@@H]2[C@@H](CO)OC(n6cnc7cc(C)c(C)cc76)[C@@H]2O)C5CC(N)=O)C(C)(CC(N)=O)C4CCC(N)=O)/C(C)(CC(N)=O)C3CCC(N)=O)/C1(C)C.[CH2-][C@H]1OC(n2cnc3c(N)ncnc32)[C@H](O)[C@@H]1O.[Co+2] (some centres undefined)
    -0.49 | x
> CCCC(C#N)c1ccc(Cl)cc1Cl (centres undefined)
    -0.34 | -0.45
> Cc1cccc(C2CC(=O)Nc3c2c(=O)n(C)c(=O)n3C)c1 (centres undefined)
    -0.3 | 0.75
> N/C(=N\OC(=O)c1ccccc1)c1ccc(-c2csnn2)cc1
    -0.27 | x
> CCOc1ccc2c(c1)-c1c(ssc1=Nc1cccc(F)c1)C(C)(C)N2
    -0.78 | x
> Cc1cc(C)c(NC(=O)C(C)OC(=O)c2nccnc2N)c(C)c1 (centres undefined)
    x | 0.15
> CCN1CCCC1CNCC(=O)NC1(C)C2CCC(C2)C1(C)C (centres undefined)
    x | -0.6
> Cn1c(=O)[nH]c(=O)c2c1nc(CN1CCN(Cc3ccccc3)CC1)n2Cc1ccc(Cl)cc1
    -0.035 | -0.4
> C=CCn1c2ccccc2n2ncnc12
    -0.62 | -0.55
> COc1ccc(C2C(C(=O)O)c3ccccc3C(=O)N2Cc2ccco2)cc1 (centres undefined)
    0.07 | -0.15
> O=C(CCCN1CCC2(CC1)C(=O)NCN2c1ccccc1)c1ccc(F)cc1
    0.31&-0.3 | -0.45
> CSC(=NCc1c(N(C)C)cccc1N(C)C)NS(=O)(=O)c1ccccc1
    -0.97 | -0.6
> CC(C)c1ccc(NC(=O)C2=NNC(=O)CC2)cc1
    -1.2 | 1.6
> Nc1c(C(=O)NCc2ccco2)c2nc3ccccc3nc2n1CCc1ccccc1F
    x | 1.1
> CCCN(CCC)S(=O)(=O)c1nc2nc(C)cc(C)n2n1
    -0.095 | 0.6
> COc1ccccc1-[n+]1cc([O-])on1
    -0.37 | -0.6
> O=C1NC(=O)C(C(CC(=O)c2ccccc2)c2ccccc2Br)C(=O)N1 (centres undefined)
    0.12 | -0.15
> Cn1ccnc1Sc1cnc(SCC(=O)c2ccc(Cl)cc2)nc1-c1ccccc1
    9.6 | 1.1
> N/C(=N\OC(=O)Nc1ccc(Cl)cc1)c1ccc(C2SCCS2)cc1
    0.57 | x
> O=C1C(Sc2ncn[nH]2)=C/C(=N/S(=O)(=O)c2ccc(Cl)cc2)c2ccccc21
    -1.7 | -0.45

Taken from above:
For AID504770, `CCCC(C#N)c1ccc(Cl)cc1Cl` (centres undefined) shows -0.45
For CapD inh, `CCCN(CCC)S(=O)(=O)c1nc2nc(C)cc(C)n2n1` shows -0.095
For CapD inh, `O=C1NC(=O)C(C(CC(=O)c2ccccc2)c2ccccc2Br)C(=O)N1` (centres undefined) shows 0.12
For CapD inh, `C=CCn1c2ccccc2n2ncnc12` shows -0.62

Continuation.
Under each structure – CapD inh | AID504770
> CCN=C1NN=C(c2ccc(NC(=O)CC)cc2)CS1
    x | -0.3
> Cn1c2ccccc2c2[nH]c3ccccc3c21
    79 | 0.6
> CCN(CC)S(=O)(=O)c1cccc2nsnc12
    x | -0.6
> COc1ccc2[nH]cc(CCNC(=O)OCC(C)C3CCCCC3)c2c1 (centres undefined)
    0.46 | x
> O=S(=O)(NCc1ccc(N2CCOCC2)cc1)c1cccs1
    -0.14 | -0.15
> CCc1nn(CC(=O)NCC2CCCO2)c(=O)c2cc3c(OC)cccc3n12 (centres undefined)
    34 | 0.85
> O=C(OC1CCCCC1=O)c1ccc2c(c1)OCCO2 (centres undefined)
    x | -0.7
> Cc1cc([S-])c2n(cn[n+]2Cc2ccc(Cl)cc2Cl)n1
    0.51 | 0.05
> O=C(COC(=O)c1n[nH]c2ccccc12)NCc1ccccc1
    -0.15 | 2.6
> COc1cc(Nc2nc(SCC(=O)NCC3CCCO3)nc3ccccc23)cc(OC)c1 (centres undefined)
    -0.38 | x
> COC(=O)CN1C=C(C(=O)OC)C(c2ccc(F)cc2)C(C(=O)OC)=C1
    51 | 0.25
> Cc1onc(-c2ccccc2Cl)c1C(=O)NC(=S)N1CCCc2ccccc21
    x | -0.3
> COc1cc(OC)c(NC(=O)Nc2noc3c2COc2ccccc2-3)cc1Cl
    0.3 | 0.65
> C=CCOC(=O)CCC(NC(=O)c1nc(C)oc1C(F)(F)F)C(=O)OCC=C (centres undefined)
    -0.35 | x
> O=C1c2ccccc2NC(c2ccccn2)N1CCCN1CCOCC1 (centres undefined)
    69 | 1.7
> Oc1ccccc1-c1cc(-c2ccc3c(c2)OCCO3)n[nH]1
    0.32 | -0.05
> Cc1cc(OC(C)C(=O)NCC2CCCO2)cc(C)c1Cl (centres undefined)
    0.67 | -1
> Cc1ccccc1-n1c(-c2ccc(Br)cc2)cn2c3c(=O)n(C)c(=O)n(C)c3nc12
    -0.32 | x
> Cc1nsc2c1ccc1sccc12
    0.36 | -0.75
> CCc1ccccc1NC(=O)c1ccc(F)c(S(=O)(=O)N2CCc3ccccc3C2)c1
    -0.55 | x
> CC(=O)N(Cc1ccccc1)Cc1cn(-c2ccccc2)nc1-c1cccs1
    2.1 | 0.1
> Cc1noc(C)c1S(=O)(=O)NCc1cccs1
    0.84 | 0.7
> O=S(=O)(c1ccc(Cl)cc1Cl)N1CCCC1c1cccnc1 (centres undefined)
    0.11 | -0.15
> Cc1ccc(S(=O)(=O)NC(=O)n2cc(-c3ccnc4ccccc34)c(-c3ccccn3)n2)cc1
    0.57 | x
> CC(C)CC(NC(=O)C1CCC(C)CC1)C(=O)O (centres undefined)
    0.41 | -0.35
> O=C1/C(=C\NCc2ccccc2)S(=O)(=O)N(Cc2ccc(Cl)cc2)c2ccccc21
    -0.3 | 0.95
> Cc1cc2c(cc1S(=O)(=O)N1CCc3ccccc31)OCC(=O)N2
    1.1 | -0.6
> Cc1[nH]nc(-c2ccc(O)cc2O)c1Oc1ccc(F)cc1
    1.1 | 0.4
> CNc1nc(-c2ccc3c(c2)CCN3C(=O)C(C)C)cs1
    x | 1.9
> O=C1/C(=C/c2ccc(Cl)cc2)C=C(c2ccccc2)N1c1ccc2ccccc2c1
    -0.34 | x

Copied from above (two entries):
Under each structure – CapD inh | AID504770
> CCN=C1NN=C(c2ccc(NC(=O)CC)cc2)CS1
    x | -0.3
> Cn1c2ccccc2c2[nH]c3ccccc3c21
    79 | 0.6

Next section:
SMILES | CapD inh | AID504770
CSc1n[nH]c(-c2ccccc2)n1 | -1.7 | 0.65
FC(F)(F)CNCc1ccco1 | x | 1.7
CC1=NN(C(=O)Cc2ccccc2)C(O)(c2ccc(Br)cc2)C1 (centres undefined) | -0.4 | x
O=C(c1ccco1)N1N=C(c2ccccc2)CC1c1cc2cc3c(cc2nc1Cl)OCCO3 (centres undefined) | x | 0.15
CCCn1c2ccccc2c2cnn(CC(=O)NC3CCCC3)c(=O)c21 | 10 | -0.8
COc1ccc(-c2cc(C(F)(F)F)nc(SCC(=O)N3CC4(C)CC3CC(C)(C)C4)n2)cc1 (centres undefined) | -0.96 | -0.7
CCC(=O)c1cn(CC(=O)NCc2cccs2)c2ccccc12 | -0.035 | 0.3
CCN(CC)C(=O)COc1nc(Cc2ccccc2)nc2sc3c(c12)CCCC3 | 0.065 | x
CC(=O)Nc1ccc(S(=O)(=O)Nc2ccc(F)cc2)cc1 | -0.07 | -1.3
CCN(C(=O)Cc1ccc(Cl)cc1)c1ccccc1 | -0.12 | 1.9
CC(=O)NCCSc1nc(-c2cccs2)cc(-c2ccc(F)cc2)c1C#N | -0.43 | 0.25
CC1CCCCC1NC(=O)CSCC(=O)O (centres undefined) | x | -0.2
c1ccc2c(c1)COC(CNC1CCCCC1)OC2 | -0.12 | -0.75
COc1ccc(C2(O)CN(c3ccccc3)C3=[N+]2CCCS3)c(F)c1 (centres undefined) | -0.21 | x
CCOC(=O)c1c(CN(C)C)n(-c2ccccc2)c2cc(Br)c(O)cc12 | -0.055 | x
COc1ccc(/C=C2/SC(=Nc3cccc(C)c3)NC2=O)cc1Br | 0.19 | x
O=C(CCn1nc(-c2ccc(Cl)cc2)ccc1=O)NCc1cccnc1 | 0.52 | -0.8
CCC(C)OC(=O)CSc1nc2ccccc2s1 (centres undefined) | 0.28 | x
CCN(CC)CCCN | 0.4 | -0.95
O=C(Nc1ccc(C(F)(F)F)cc1)OC1CN2CCC1CC2 (centres undefined) | 0.08 | 0.05

More structures
SMILES | CapD inh | AID504770
CCC(=O)N(C)C1(c2nnnn2-c2cccc(Cl)c2)CCC(C)CC1 (centres undefined) | 1.2 | x
O=C(O)c1cc2cc([N+](=O)[O-])ccc2oc1=O | -0.46 | x
CCOC(=O)Nc1ccc2c(COC(=O)c3cccn3C)cc(=O)oc2c1 | x | 0.9
CCC12CN3CCN(CC(C3)/C1=N\NC(=O)Nc1ccccc1)C2 | -0.65 | -0.15
CCOC(=O)C(Nc1cccc(CO)c1)c1ccccc1 (centres undefined) | x | 2.1
N#Cc1cnn(-c2ccc(C(F)(F)F)cn2)c1N | 0.03 | -0.75
O=C1c2ccccc2C(=O)N1C1C(=O)N(c2ccc(Cl)cc2)C1c1ccc(F)cc1 (centres undefined) | -0.11 | x
COc1ccc(OC)c(NC(=O)CCn2cnc3ccccc3c2=O)c1 | x | 0.1
Cc1ccc(C(=O)Nc2nc3ccccc3n3nnnc23)cc1 | x | 2.4
COc1ccc(C(=O)NCc2cccnc2)cc1C(=O)NCc1cccnc1 | -0.51 | x
CC(=O)N1CCc2cccc(N)c21 | 2.6 | -1.2
CC1(O)CC(=O)N(c2ccccc2)O1 (centres undefined) | -0.01 | 1.6
CC(=O)NC1C(=O)N(Cc2ccccc2)c2c(C)ccc(Cl)c21 (centres undefined) | -0.61 | -0.2
CC(C)c1cc(C(=O)NCc2cccnc2)no1 | -0.38 | -0.4
Cc1cc(C)c(S(=O)(=O)N2CCCC(C(=O)O)C2)c(C)c1 (centres undefined) | 0.53 | -0.95
COc1ccc(-c2nc3ccc(C(=O)NC4CCCC4)cc3nc2-c2ccc(OC)c(OC)c2)cc1OC | 0.45 | x
Cc1nc2sccn2c(=O)c1[N+](=O)[O-] | -0.68 | x
CCOc1cccc2cc(C(=O)OC)c(=O)oc12 | i | -0.15
CC(=O)Nc1ccc(S(=O)(=O)N(C)C2CCN(Cc3c(F)cccc3Cl)C2)cc1 (centres undefined) | -0.12 | x
Cc1cc(C)c(C#N)c(Sc2ncnc3c2nnn3Cc2ccccc2)n1 | -0.13 | 0.25

Random excerpt: 5 entries already listed
SMILES | CapD inh | AID504770
Cc1cc(C)c(S(=O)(=O)N2CCCC(C(=O)O)C2)c(C)c1 (centres undefined) | 0.53 | -0.95
COc1ccc(C(=O)NCc2cccnc2)cc1C(=O)NCc1cccnc1 | -0.51 | x
CCOC(=O)C(Nc1cccc(CO)c1)c1ccccc1 (centres undefined) | x | 2.1
CCOc1cccc2cc(C(=O)OC)c(=O)oc12 | i | -0.15
CCC(=O)N(C)C1(c2nnnn2-c2cccc(Cl)c2)CCC(C)CC1 (centres undefined) | 1.2 | x

(further entries)
SMILES | CapD inh | AID504770
C/C(=N\O)C(=O)Nc1cccc(C(F)(F)F)c1 | -0.29 | 0.5
CCOC(=O)c1[nH]c(COC(C)=O)c(CC)c1CC | 1.5 | 1.6
C=CCNc1nc(Cl)nc(N2CC3CC(C2)c2cccc(=O)n2C3)n1 (centres undefined) | -0.11 | x
Cc1cc(C)n(-c2ncc(S(=O)(=O)c3ccc(Cl)cc3)c(N)n2)n1 | 0.87 | 1.5
Cc1ccc(C)n1-c1nn(S(=O)(=O)c2ccccc2)c2cccc(F)c12 | 0.45 | -0.05
CCCNS(=O)(=O)c1ccc2c(c1)OCC(=O)N2 | 0.46 | 0.05
COc1ccc(C2CC(=O)C3=C(C2)NC(C)=C(C(=O)OC2CCCC2)C3c2ccc3c(c2)OCO3)cc1 (centres undefined) | 26 | x
Cn1c2ccccc2c2nnc(SCc3ccccc3)nc21 | 0.08 | -0.05
COc1cc(/C=N/NC(=O)Cc2csc(C)n2)cc(OC)c1 | x | -1.4
CCOC(=O)c1ccc(NC(=O)CSc2nccn2-c2ccccc2)cc1 | -0.7 | -0.8
O=c1c2ccccc2nnn1CSc1nnc(Cc2cccs2)n1C1CCCCC1 | x | 2.4
O=C(/C=C/c1ccccc1)N1CCN(c2ncccn2)CC1 | x | 0.3
COC(=O)C1=CN(Cc2ccc(OC)c(OC)c2)C=C(C(=O)OC)C1c1cc(Br)c(O)c(OC)c1 | 6 | x
CCOC(=O)CC1NCCc2c1[nH]c1ccc(OC)cc21 (centres undefined) | 0.7 | x
CN(C)c1ccc(C=Nc2cc(Br)c3c(c2)OCCO3)cc1 | -0.09 | 0.2
Cc1ccc2c(c1)sc(/C=C1\Sc3ccccc3N1CCCS(=O)(=O)[O-])[n+]2C | -0.14 | x
CCn1c(CNS(=O)(=O)c2ccc(Br)cc2)nnc1SC | 0.065 | x
Clc1ccc(-c2cc3c(nn2)Nc2ccccc2N3)cc1 | -0.32 | 1.9

This is a subset, so the mix of outcomes need not match the whole.
